S aureus helic: S. aureus DNA helicase inhibition; purified S. aureus helicase, fluorescence unwinding assay; about half of the hits fall short of the stated cut; inhibition, %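 (tested at about 80 µM)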; 120,000 tested, 0.05% active;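 active = both duplicates at 50% or more, or one of them with a favoured structure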;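 also: 0% = mean of negative control wells and 100% = mean of positive control wells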
MgrA DNA FP: S. aureus MgrA-DNA binding modulation. fluorescence polarization. AID 602314. inhibition, %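 (about 10 µg/mL by stock and volumes)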. 84,000 tested, 0.13% active;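 active = above 50% in either of two replicates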;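 also: 0% = protein plus DNA without compound and 100% = DNA alone without protein; higher means less MgrA bound to DNA so lower polarization; one replicate is shown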
* marks the source's active call; other numbers are inactive results; nt = not tested or not shown.

Compound,S aureus helic,MgrA DNA FP
COc1ccc(-n2cc(-c3ccccc3)c3c(Nc4ccccc4)ncnc32)cc1,6.0,1.1
CCN(Cc1ccccc1)C(=O)/C=C/c1ccc(OC)cc1,18.0,1.0
CCOc1ncccc1C(=O)OCc1ccccc1,4.0,-3.2
CCS/C=C/C#CC1(O)CCCCC1,-2.0,1.2
CCCC(=O)Nc1nn2c(-c3ccc(OC)cc3)nnc2s1,6.0,0.3
Cc1cc(C)nc(/N=C2\NC(=O)CN2c2cc(Cl)cc(Cl)c2)n1,4.0,-10.5
O=C(CN1C(=O)/C(=C/c2ccccc2F)Oc2ccccc21)N1CCCC1,5.0,2.6
COC(Cn1cc2c(c1-c1ccccc1Br)c(=O)n(C)c(=O)n2C)OC,21.0,nt
CCCCn1c(C)c(Cc2ccccc2)[nH]c1=O,-9.0,nt
O=S(=O)(CCc1ccccc1)/N=C/c1ccco1,-17.0,-0.4
CCOc1cc(/C=C2/C(=O)ON=C2C)cc(Cl)c1OCc1ccc(F)cc1,9.0,54.4*
Cc1ccc(C)c(NC(=O)C2COc3ccccc3O2)c1 (stereo not drawn),nt,1.1
CCN(CC)Cc1cc(NC(C)=O)ccc1O,3.0,nt
NC(=O)CNC(=O)c1cccs1,nt,-1.2
N#CC1=C(SCc2ccccc2)NC(=O)C(C#N)C1c1ccccc1Cl (stereo not drawn),-7.0,nt
Cc1cc(NC(=O)Cn2c(=O)n(CCCC(=O)NCc3ccc4c(c3)OCO4)c(=O)c3ccccc32)n[nH]1,8.0,nt
CCn1c(=NC(=O)C(C)(C)C)sc2ccccc21,9.0,nt
Cc1nc2ccccc2nc1SCc1nc(N)nc(N2CCCCC2)n1,-10.0,-1.1
CC1(C)CC(=O)CC(c2ccccc2)(C(F)(F)F)O1 (stereo not drawn),1.0,nt
CS(C)(=O)=NS(=O)(=O)c1cc(S(=O)(=O)N=S(C)(C)=O)c(Cl)s1,12.0,nt
Cc1[nH]c(=S)c(C#N)c(C)c1Cc1ccc(Cl)cc1Cl,nt,2.6
Cc1ccc2oc(=O)c(/C=C(\O)CC(C)C)nc2c1,2.0,1.9
O=S(=O)(NCc1cccs1)c1cccc2cccnc12,nt,-0.8
CC(C)(C)NC(=S)N/N=C/c1ccccc1SC(C)(C)C,nt,-1.0
CCOC(=O)NC1(Nc2ccccc2)Oc2ccccc2O1,10.0,nt
CCN(CC)C(=O)c1c[nH]c2ccc(S(=O)(=O)Nc3cc(C)cc(C)c3)cc2c1=O,5.0,4.2
Cc1ccc(NC(=O)c2ccn(C(=O)Nc3cccc(Cl)c3)n2)cc1,17.0,3.9
Cc1conc1NC(=O)CNC(=O)C1CCCCC1,-23.0,2.7
CC(=O)Nc1nc2c(s1)CC(C)CC2 (stereo not drawn),-7.0,nt
CCC(CC)NS(=O)(=O)c1ccc(Br)cc1,23.0,2.0
Cc1ccc(-c2csc3ncnc(NCc4ccco4)c23)cc1,nt,1.5
Cc1cc(O)c(C(=O)c2cccs2)c(=O)o1,22.0,nt
COc1ccc(OCCSc2nnc(-c3ccc(OC)cc3)o2)cc1,4.0,nt
CSc1nnc(CNC(=O)Cc2c(F)cccc2Cl)n1C,19.0,2.8
CCOC(=O)c1nnc(Cc2ccc(C)cc2)o1,-4.0,-1.6
CCOC(=O)c1cnc2cc(OC)ccc2c1Cl,-10.0,nt
CNC(=O)C12CC3CC(CC(C3)C1)C2,-5.0,0.5
COc1cccc(C(N)=O)c1OC(=O)COc1ccc(Br)cc1,15.0,nt
Cc1ccc(Cn2nc(C)c(C(=O)N=c3sccn3C)c2Cl)cc1,1.0,nt
N=C(N)SCC1CN=C(N2CCCC2)S1 (stereo not drawn),9.0,1.9
Cc1ccccc1NC1=C(C(=O)c2ccccc2)N(C)S(=O)(=O)c2ccccc21,7.0,-0.1
O=C1Nc2ccccc2C1=Nc1ccc(Br)cc1,11.0,-0.8
COc1ccccc1Oc1ccc(C(F)(F)F)cc1NC(=O)c1ccc(Cl)cc1Cl,nt,-2.1
Cc1ccc2c(c1)c1c3n2CCCNC3CCC1 (stereo not drawn),2.0,nt
O=C(CN1CCNC(=O)C1)NCCc1ccc(F)cc1,-1.0,nt
Cc1cccc(-n2c(SCc3c(C)noc3C)nc3ccccc32)c1,1.0,nt
CCn1cc(CCC(=O)NCCN2CCOCC2)c2ccccc21,13.0,nt
COc1ccc(C(=O)CN2C(=O)c3ccccc3S2(=O)=O)cc1,nt,-1.4
Cc1cc(C)cc(OC(C)C(=O)Nc2ccc3c(c2)n(C)c(=O)n3C)c1 (stereo not drawn),1.0,-6.1
CCCC1C(=O)N2C(N(C)C)=Nc3ccc(C)cc3N2C1=O (stereo not drawn),nt,-0.1
COc1cc(C(=O)Nc2cccc3c2C(=O)c2ccccc2C3=O)cc(OC)c1OC,nt,2.3
CCCCN1Cc2c(sc3c2CCCC3)N(C(C)=O)C1,0.0,nt
O=S(=O)(Nc1ccccc1CO)c1ccc(S(=O)(=O)N2CCCC2)cc1,-4.0,nt
O=C1CN(c2cccc(C(F)(F)F)c2)C(=O)CN1/N=C/c1cccnc1,12.0,nt
CCc1nc2c(cnn2-c2ccc(F)cc2)c(=O)n1-c1ccc(OC)c(Cl)c1,10.0,1.4
O=c1onc(-c2cccnc2)n1-c1ccccc1,nt,-1.8

The list goes on:
Compound,S aureus helic,MgrA DNA FP
CC(C)(C)N1COc2c(cc(Cl)c3cccnc23)C1,11.0,nt
CCNC(=O)NC1(C(=O)O)CC2CCC1(C)C2(C)CC (stereo not drawn),-1.0,nt
CCCCNC(=O)Nc1ccc(S(=O)(=O)Nc2cccc(Cl)c2)cc1,-3.0,nt
Cc1ccc(-c2cn3c(n2)sc2cc(C(=O)O)ccc23)c(C)c1,8.0,0.8
CCCCN(CC)Cc1ccc(CNC(=S)Nc2cccc(F)c2)o1,-1.0,nt
O=C1CCCc2cc(S(=O)(=O)NCCC(=O)NC3CCCCC3)ccc2N1,1.0,nt
CSC1=NC2(CCN(C(=O)NC3CCCCC3)CC2)N=C1c1ccccc1,-19.0,nt
CS(=O)(=O)C(C#N)=C1SCCCCS1,nt,-0.9
O=C(c1ccc2c(c1)OCCO2)n1cccn1,22.0,0.8
COC(=O)C1=CN(c2cccc(C(F)(F)F)c2)C=C(C(=O)OC)C1c1ccc(F)cc1,4.0,1.0
CN(C)C(=O)NCCc1ccc(F)cc1,13.0,-0.1
CN(C)NC1CCS(=O)(=O)C1 (stereo not drawn),10.0,11.4
CC(=O)Oc1ccc(OCc2ccccc2)cc1,-16.0,nt
CC(NC(=O)c1ccccc1)C(=O)NN (stereo not drawn),3.0,-1.9
CCN1CCN(CC(=O)Nc2ccc(Cl)cn2)CC1,-14.0,1.3
Cc1ccc(N=Cc2ccc(C)o2)cc1,7.0,-1.9
CSc1nc2c([nH]c3ccccc32)c(=O)n1C,4.0,nt
CCOc1cc(/C=C2\N=C(c3cccc(Cl)c3)OC2=O)cc(Br)c1OC(C)=O,nt,-1.8
COc1ccc(C(=O)NCc2n[nH]c(=O)c3ccccc23)c(OC)c1,10.0,nt
Cc1ccc(NC(=O)COC(=O)c2c(C)nsc2N)cc1C,-7.0,nt
COc1ccc(C2Nn3c(C)nnc3SC2C(=O)NCc2ccco2)cc1Cl (stereo not drawn),7.0,0.3
Cc1ccc(C)c(NC(=O)C2=CCN(S(=O)(=O)c3ccc(F)cc3)CC2)c1,5.0,-0.8
O=C(CCc1nc2ccccc2c(=O)[nH]1)N1CCN(c2ccccc2)CC1,-6.0,nt
COC(=O)c1sccc1S(=O)(=O)Nc1ccc(N2CCN(C)CC2)cc1,nt,1.4
O=C(O)CCSc1nccn1Cc1ccccc1,12.0,-3.2
CC(Sc1nnc(COc2ccc(Cl)cc2)n1C)C(N)=O (stereo not drawn),-6.0,nt
COc1ccc(NS(=O)(=O)c2ccc(C)c(Cl)c2)cc1,27.0,0.6
CCOC(=O)c1cccc(NC(=O)c2cc3c(=O)[nH]c4ccccc4c3n2C)c1,-18.0,nt
COc1ccc(CN)cc1Cn1cccn1,8.0,2.7
O=C(CC(C(=O)N1CCc2ccccc21)n1ccnc1)N1CCc2ccccc2C1 (stereo not drawn),12.0,3.9
O=C(COc1ccc(Cl)cc1)Nc1ccc2nc3n(c(=O)c2c1)CCCCC3,4.0,-1.2
Cn1c(CNC(=O)c2cccs2)cc2ccccc21,18.0,-0.3
CN(C)/C=N/c1nc(-c2ccc3c(c2)OCO3)cs1,6.0,nt
CC1CCCCC1NC(=O)Cn1ncc2ccccc21 (stereo not drawn),5.0,nt
Cc1[nH]c(SCC(=O)O)nc1Cc1ccccc1,26.0,nt
CC(=O)Nc1c(C(=O)N2CCN(c3ccccc3)CC2)oc2ccccc12,-8.0,nt
N#Cc1ccccc1CSc1nc2c(sc(=S)n2Cc2ccco2)c(=O)n1-c1ccc(F)cc1,1.0,nt
O=C(c1ccc(CS(=O)(=O)c2ccc(Br)cc2)o1)N1CCN(Cc2ccc3c(c2)OCO3)CC1,14.0,nt
Cn1c(C(C#N)C(=O)c2ccccc2I)nc2ccccc21 (stereo not drawn),nt,-1.0
Nc1nc(-c2cccc(NS(=O)(=O)c3ccccc3)c2)cs1,-25.0,nt
CSc1ccc(C2CC(=O)Nc3c2c(=O)nc(SC)n3C)cc1 (stereo not drawn),-8.0,-1.0
COc1ccccc1NC(=O)C1CC(=O)OC12CCOC(C)(C)C2 (stereo not drawn),14.0,-1.4
Cc1ccc2cc(C)c(N3CC(C)OC(C)C3)nc2c1 (stereo not drawn),48.0,2.5
Cc1ccc(N2C(N)=NC(N)=NC2(C)C)cc1,-18.0,nt
OC1(C#Cc2ccccc2)CCCCC1,-1.0,2.1
CCOC(=O)c1ccccc1Nc1nc2ccccc2c2nnc(C)n12,16.0,nt
O=C(O)CNc1c(F)c(F)nc(F)c1F,4.0,-0.5
FC(F)(F)Oc1ccc(C2NCCc3sccc32)cc1 (stereo not drawn),nt,2.0
O=C(Oc1cccc2cccnc12)c1cccs1,-2.0,nt
O=C(COc1ccc2c(=O)c(-c3ccccc3)coc2c1)OC1CCCCC1,7.0,2.3
O=C(CSc1ncn(-c2ccccc2)n1)N1CCc2ccccc21,10.0,2.2
Cc1ccc(/C(C#N)=C/c2cccc([N+](=O)[O-])c2)cc1,nt,0.8
CCc1ccc(-c2nc(CSCC(=O)NCc3ccccc3)c(C)o2)cc1,22.0,0.5
Cc1noc(C)c1CC(C#N)(Cc1c(C)noc1C)c1nc(-c2ccc(Cl)cc2Cl)cs1,-9.0,nt
COc1ccc(C2Nc3ccccc3O2)cc1 (stereo not drawn),nt,-1.9
NNC(=O)c1cncn1-c1ccccc1,2.0,nt

Some of these compounds in order of formula weight, low to high.
Compound,S aureus helic,MgrA DNA FP
O=C(Oc1cccc2cccnc12)c1cccs1,-2.0,nt
Cc1ccc(/C(C#N)=C/c2cccc([N+](=O)[O-])c2)cc1,nt,0.8
O=C(COc1ccc2c(=O)c(-c3ccccc3)coc2c1)OC1CCCCC1,7.0,2.3
CCc1ccc(-c2nc(CSCC(=O)NCc3ccccc3)c(C)o2)cc1,22.0,0.5

More results:
Compound,S aureus helic,MgrA DNA FP
COc1ccc(OC)c(S(=O)(=O)NC2CCCC(C)C2C)c1 (stereo not drawn),-3.0,0.6
COC(=O)Cc1[nH]nc2c1C1(CCOC1C)C(C#N)=C(N)O2 (stereo not drawn),-16.0,0.3
Cc1ccc(NC(=O)CCCn2c(=S)[nH]c3ccsc3c2=O)cc1C,3.0,-1.6
CCN1CCN(c2ccc(NC(=O)c3cccc(Br)c3)cc2)CC1,-16.0,0.2
COC(=O)c1cc2occc2n1CC(=O)Nc1ccccc1OC,0.0,nt
COc1ccc(S(=O)(=O)NCc2cccn2Cc2ccc(Cl)cc2)cc1,9.0,nt
CCN(CC)C(=O)C1CCCN(Cc2cc(Br)c(O)c(OC)c2)C1 (stereo not drawn),4.0,-1.6
O=S(=O)(Nc1ccc(-n2ccc(C(F)(F)F)n2)cc1)c1ccc(Cl)cc1,nt,1.0
O=S(=O)(/C=C/c1ccccc1)Nc1cc(Cl)ccc1-n1cncn1,-3.0,nt
NS(=O)(=O)c1ccc(Nc2nncc(=O)[nH]2)cc1,10.0,-3.6
CC1CCc2cc(F)ccc2N1C(=O)CCN1C(=O)c2ccccc2S1(=O)=O (stereo not drawn),15.0,nt
O=C1CC(c2c[nH]c3ccccc23)C(=O)N1c1ccccc1O (stereo not drawn),20.0,nt
CCCCCC(=O)N1CCN(CCn2c(C)c3c(=O)n(-c4nc5ccccc5s4)[nH]c3cc2=O)CC1,-11.0,nt
CC1CCCC(C)N1C(=O)c1cc(-c2ccc(F)cc2)on1 (stereo not drawn),10.0,nt
CN1/C(=C/C2CC(=O)NC2=O)C(C)(C)c2ccccc21 (stereo not drawn),2.0,4.8
CC1CC(NS(=O)(=O)c2cccs2)CC(C)(C)C1 (stereo not drawn),4.0,0.3

These rows are one share of the data; rates above refer to the full screens.
